Autofluor counter = compound fluorescence in toxin protease inhibitor counterscreen; compound autofluorescence counterscreen, microsphere flow cytometry; active compounds read high; fluorescence intensity (no concentration beside the values); hit rate 3.1% among 360,000;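 active = at least 3 SD above the mean of all compounds, about 16000 in these data; inconclusive = too few beads counted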;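 note: 100 nL of 1 mM stock went into each well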
Sa RN4220 lethal = S. aureus RN4220 growth inhibition | OD600, 16 h | inhibition, % (concentration not given with the values) | hit rate 0.33% among 330,000;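 active = z-score of -3 or lower and OD600 up to 0.18 on both plates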;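 note: plate controls were untreated cells for no effect and reference antibiotic for full effect; stock transfer was 100 nL into about 80 µL; one replicate is shown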
Mtb hypoxia inh = reduces hypoxia-regulated biosensor signal in M. tuberculosis | M. tuberculosis hypoxia-regulated fluorescent reporter, fluorescence | fluorescence inhibition, % (test concentration not listed) | hit rate 0.1% among 300,000 | AID 1159583;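 active = 35 to 45% if threefold the growth effect, above 45% if 1.5-fold the growth effect; inactive = the rest, general growth blockers included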;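 note: wells of about 50 µL received 100 nL stock; 0% = vehicle wells and 100% = reference inhibitor wells; whole bacteria with a GFP reporter of the hypoxia response; strong numbers were not always called active; many hits fall short of the cut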
PrP UTR inh = suppresses PrP 5' UTR mRNA reporter expression. cell-based PrP 5' UTR mRNA reporter, plate reader. inhibition, % (test concentration not listed). hit rate 0.35% among 340,000. AID 488862;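 active = every replicate at 50% or more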;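 note: 0 = median of the neutral control wells; tested in H4 reporter cells; numbers are from one replicate; inactives centre near -14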
ugtP null kill = growth inhibition of S. aureus ugtP deletion strain; S. aureus RN4220 ugtP deletion, OD600 growth, 16 h; some inactives read as strong as hits; growth inhibition, % (no concentration beside the values); hit rate 0.54% among 330,000;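 active = z-score under -3 and OD600 up to 0.15 on both plates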;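 note: plate controls were untreated wells for no effect and antibiotic for full effect; wells of about 80 µL received 100 nL stock; the first replicate is given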
BJeLR viability = BJeLR cell viability loss; inhibition, % (no concentration beside the values); hit rate 0.17% among 300,000; BJeLR (HRASV12) viability, CellTiter-Glo ATP luminescence, 48 h; reference of the scale not given here;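 active = replicate mean above 50%; inconclusive = above 50% but judged a plate artefact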;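 note: 50 nL library stock added to about 25 µL; numbers are from one replicate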
Mtb hypoxia inh growth = recorded beside Mtb hypoxia inh, whose call it bears; growth inhibition, %; measured here: M. tuberculosis growth (absorbance);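 0% = vehicle and 100% = reference antibiotic; read after six days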
* hit, by the source's call; u = inconclusive; x = not tested or not shown.

SMILES	Autofluor counter	Sa RN4220 lethal	Mtb hypoxia inh	Mtb hypoxia inh growth	PrP UTR inh	ugtP null kill	BJeLR viability
O=S(=O)(Nc1ccc(-c2csc(-c3ccccc3)n2)cc1)c1ccccc1	1998	14	0	-6	-13	24	2
COc1ccc(C)cc1NC(=O)CN(c1ccc(F)cc1)S(C)(=O)=O	3174	5.3	5	4	-1	3	-6
COc1cccc(OC)c1C(=O)Nc1c(C(=O)N2CCN(C)CC2)oc2ccccc12	5642	4.2	3	-1	-7	3	-2
COc1ccc(CN2CCNC(=O)C2CC(=O)NC2CCOCC2)c(F)c1 (stereo not drawn)	4807	0.6	15	9	-19	7	2
c1ccc(-c2nnc(C3CC(c4ccncc4)=NO3)o2)cc1 (stereo not drawn)	3374	6.5	19	8	-18	5	-9
Cc1ccc(NS(=O)(=O)c2ccc(C(=O)NCCCN3CCCC3=O)cc2)cc1C	6141	1.8	9	5	-22	10	5
CCCCCCCCSc1nnc(-c2ccc(OC)cc2)o1	4328	7.4	x	x	-8	40	0
Nc1nnc(SCC(=O)Nc2ccc3nc(SCC(=O)Nc4ccccc4)sc3c2)s1	2452	2.1	0	1	-14	1	2
C/C(=N\NC(=O)C1(C)CC1(Br)Br)c1cccc(NC(=O)C2CCC2)c1 (stereo not drawn)	2002	x	x	x	2	x	-2
COc1ccc(-n2nnnc2SCC(=O)N2CCCC2)cc1OC	9101	6.5	11	1	-18	16	15
COc1cc(/C=N/NC2=NC(C)(C)Cc3ccccc32)cc(OC)c1OC	4074	x	x	x	-12	x	5
Cc1ccc(OCC(O)Cn2c(=N)n(CCN3CCOCC3)c3ccccc32)cc1 (stereo not drawn)	4072	3.4	14	11	-13	3	-5
COc1ccc(CN=C(N)N=C(N)N)cc1Cl	4393	6.5	4	3	-7	15	6
Nc1nnc(CC(=O)NN=Cc2ccccc2OCc2ccccc2F)s1	x	7.6	2	-1	x	-3	x
C=CCn1c(/N=C/c2ccc3c(c2)OCO3)nc2ccccc21	8892	x	x	x	-15	x	-2
CC(CC1CC2=C(CC1(C)C)C(C)(C)CCC2)=NNC(N)=S (stereo not drawn)	x	-2.7	-4	9	x	-26	x
CCN(CC)C(=O)CSC(=Nc1ccccc1F)NC#N	2639	3.9	x	x	-57	8	-6
O=C(CC1SC(N2CCCCC2)=NC1=O)Nc1ccc(C(=O)NCc2ccccc2)cc1 (stereo not drawn)	3442	0.5	6	13	-7	4	x
O=C(Cn1cc(C(F)(F)F)cc(Cl)c1=O)Nc1cccc(S(=O)(=O)N2CCCCC2)c1	x	1.1	9	8	-10	4	x
COc1ccccc1/C=C/C=N/NC(=O)Cc1cccn1C	9320	x	x	x	-29	x	-2

Part of the list above, with two lines to a compound.
Sequence of screens – Autofluor counter	Sa RN4220 lethal	Mtb hypoxia inh	Mtb hypoxia inh growth	PrP UTR inh	ugtP null kill	BJeLR viability
> O=S(=O)(Nc1ccc(-c2csc(-c3ccccc3)n2)cc1)c1ccccc1
→ 1998	14	0	-6	-13	24	2
> COc1ccc(C)cc1NC(=O)CN(c1ccc(F)cc1)S(C)(=O)=O
→ 3174	5.3	5	4	-1	3	-6
> COc1cccc(OC)c1C(=O)Nc1c(C(=O)N2CCN(C)CC2)oc2ccccc12
→ 5642	4.2	3	-1	-7	3	-2
> COc1ccc(CN2CCNC(=O)C2CC(=O)NC2CCOCC2)c(F)c1 (stereo not drawn)
→ 4807	0.6	15	9	-19	7	2
> c1ccc(-c2nnc(C3CC(c4ccncc4)=NO3)o2)cc1 (stereo not drawn)
→ 3374	6.5	19	8	-18	5	-9
> Cc1ccc(NS(=O)(=O)c2ccc(C(=O)NCCCN3CCCC3=O)cc2)cc1C
→ 6141	1.8	9	5	-22	10	5

Other compounds follow.
SMILES	Autofluor counter	Sa RN4220 lethal	Mtb hypoxia inh	Mtb hypoxia inh growth	PrP UTR inh	ugtP null kill	BJeLR viability
CCOC(=O)C1C2COc3ccccc3C2N2C(=O)C(C)NC(=O)[C@@]12C (stereo partly drawn)	x	-2.3	1	7	x	-2	x
O=C(Cc1ccc(Nc2nc(=S)[nH]c3ccccc23)cc1)NC1CCCCC1	x	1.4	-8	2	x	4	-1
O=C(NCCN1CCOCC1)c1cc(S(=O)(=O)Nc2ccccc2F)c(Cl)cc1Cl	3272	0.2	-3	16	-9	-4	8
COc1cc(/C=C/C(=O)CC(=O)/C=C/c2ccc(O)c(OC)c2)ccc1O	6257	x	x	x	21	x	-9
O=C(CN(c1ccc(F)cc1)S(=O)(=O)c1ccccc1)N1CCOCC1	5535	-1.7	3	4	-19	4	-2
O=C(N/N=C/c1ccc[nH]1)c1ccc(O)cc1	4190	x	x	x	-25	x	1
CN(Cc1ccccc1)C(=O)CCNC(=O)Cn1cnc2ccccc2c1=O	2805	2.2	x	x	7	1	-4
CCCCOc1ccc(C(O)(CCN2CCOCC2)c2ccccc2)cc1 (stereo not drawn)	3614	2.4	7	7	-30	10	-2
Cc1ccccc1Cc1c(C)nc2ncnn2c1C	11439	1.9	-15	-7	-17	2	4
O=C(Nc1ccc(S(=O)(=O)N2CCOCC2)cc1)c1cccc(Br)c1	4064	-1.4	12	-3	-29	10	-2
CN(Cc1ccccc1)c1ccc([N+](=O)[O-])cc1C(=O)O	4616	4.8	9	-1	-24	0	-4
Cc1cc(C)nc(N2CCCC(CCC(=O)NCc3ccc(F)c(F)c3)C2)n1 (stereo not drawn)	4863	0.3	19	-2	-23	9	-1
Cc1ccc(-n2c(C)nn(CC#N)c2=O)cc1	3284	15	16	5	0	5	-1
CN(CCO)CCC(=O)NC1(C)CS(=O)(=O)CC1S(=O)(=O)O (stereo not drawn)	4839	1.0	14	-4	-19	-2	8
Cc1cc(NC(=O)CSc2nc3c(cc2C#N)CCCCC3)no1	4335	3.0	4	12	-68	3	3
COc1ccc(S(=O)(=O)N2CCCC2)cc1C(C)C	4735	5.8	7	7	-5	3	-1
FC(F)Oc1ccc(NC(=S)NCc2ccccc2)cc1Cl	11411	-12	7	12	-32	-40	-12
O=C(Oc1ccc2c3c(c(=O)oc2c1)CCCC3)c1ccco1	2603	9.6	x	x	0	10	0
Cc1ccccc1NC(=O)CSc1nc(N)c2c3c(sc2n1)CSC(C)(C)C3	2542	-6.2	7	5	-13	34	-3
O=C(CSc1cccc2cccnc12)OCC(=O)c1ccccc1	7188	5.9	0	-3	6	8	-11
CC1CCCN(C(=O)CN(C)S(=O)(=O)c2ccc3c(c2)c(=O)n(C)c(=O)n3C)C1 (stereo not drawn)	4484	5.0	2	0	-20	6	13
CCc1nnc(SCC(=O)NCCC2=CCCCC2)nc1CC	4131	1.9	11	-7	-25	3	-14
O=C(NCC1CCCO1)C(=Cc1cccc([N+](=O)[O-])c1)C(=O)NCC1CCCO1 (stereo not drawn)	2400	4.4	20	16	-1	2	-3
Nc1cccc2nsnc12	4306	1.3	6	-16	-48	9	5
CC(=O)N(C)c1ccc(N=Nc2ccc3ncccc3c2)cc1	4151	2.1	6	8	-36	-5	x
CC(=O)Oc1ccc(C=NNC(=O)CCSc2ccccc2)cc1	x	1.0	9	-2	x	3	x
C/C=C1\COC(C(=O)NCCCN2CCCC2=O)(C(F)(F)F)C=C1C=C(C)C (stereo not drawn)	3867	x	x	x	-33	x	-2
CCOCCCNC(=O)C(c1ccc(Cl)cc1)N1CCC2(CC1)OCCO2 (stereo not drawn)	3554	2.7	9	0	15	6	-3
O=C1NCC(Cc2ccccc2)N(CCc2cccc(F)c2)C1=O (stereo not drawn)	x	2.2	3	-3	x	0	x
CCCC1C(C(=O)OCC)=C(C)NC(C)=C1C(=O)OCC	5086	3.2	x	x	-16	-2	-5
CCOC(=O)C1=C(COC(=O)/C=C/c2ccc(OC)cc2)NC(=O)NC1C (stereo not drawn)	u	0.4	-1	-1	-16	0	x
Cc1c(C(=O)OCC(=O)NCCN2C(=O)CSC2=O)cccc1[N+](=O)[O-]	3859	1.6	-3	0	-6	2	x
CCC/C(O)=C1\C(=O)CCCC1=NCCCCCC(=O)O	2514	x	x	x	-21	x	-6
CN(C)CCCNc1ncc(C(F)(F)F)cc1Cl	4498	6.3	2	-6	-29	7	-2
CC(C)N1CCC(n2nccc2NC(=O)c2ccc3c(c2)OCO3)CC1	5401	1.2	11	-1	-21	6	-6
Cc1[nH]c(=O)c(C#N)c(C)c1Cl	5885	0.0	5	8	-9	1	0
C=CCNC(=O)CN1CCC(n2c(C)nc3cc(C(F)(F)F)ccc32)CC1	3343	-0.3	-1	-5	11	11	2
CCC(CC)NC(=O)c1cc(OC)c(OC)cc1[N+](=O)[O-]	2415	2.4	x	x	-6	-6	1
O=C(O)CCCNC(=O)CCCn1nnc2ccccc2c1=O	4660	4.4	2	3	-8	1	5
COc1cccc(C2NC(=O)NC(C)=C2C(=O)Nc2ccc(C)cc2)c1 (stereo not drawn)	5794	0.2	1	-5	-17	4	8
CCN(Cc1ccccc1)S(=O)(=O)c1cc(C(=O)O)ccc1OC	3452	4.0	9	9	-18	4	6
COCC(C)NC(=O)C(C)Oc1ccccc1 (stereo not drawn)	2082	3.4	1	8	-27	1	-4
O=C(NCc1ccco1)NC12CC3CC(CC(C3)C1)C2	2293	-13	10	17	-18	-7	9
COc1cc(OC)cc(-c2c(-c3cccs3)c3cc(-c4ccc(N(C)C)nc4)ccc3n2C)c1	3945	-1.9	-1	-2	-12	1	x
COc1cccc(NC(=O)CN(C)C(=O)c2cccc(NS(=O)(=O)c3ccccc3)c2)c1	4959	-3.9	8	7	-16	-1	x
Cc1ccc(NC(=O)c2ccc(S(=O)(=O)N3CCOCC3)cc2)nc1	5797	0.7	5	6	-30	7	4
Cc1cccc(N(C(=O)CNC(=O)c2ccco2)C(C(=O)NC2CCCCC2)c2cccnc2)c1 (stereo not drawn)	3017	4.1	5	-2	-17	12	-7
Cc1ccc([C@H]2C(C(=O)O)=CC[C@@H](c3cccs3)N2S(=O)(=O)c2ccc(C)cc2)cc1	2997	24	0	0	-1	8	x
CCN(CC)CCn1c2c(c(SCC(=O)Nc3nc4ccccc4s3)nc1=O)CCCC2	5391	3.0	6	2	-8	4	4
CC1CCN(CC(O)COc2cccc(F)c2)CC1 (stereo not drawn)	4944	0.9	x	x	-25	6	2
COc1ccc(NC(=O)C2CCCN2C(=O)OCc2ccccc2)c(OC)c1 (stereo not drawn)	5340	0.7	x	x	-15	1	-10
Cc1cc(=O)oc2cc(OCc3ccc(C(=O)N4CCN(c5ccc([N+](=O)[O-])cc5)CC4)cc3)ccc12	2316	0.9	-7	-9	-101	3	11
O=C(Cc1ccccc1)NNc1c2ccccc2nc2ccccc12	4694	12	11	3	-5	2	0
Cc1cc(N)n(Cc2ccc(Cl)cc2)n1	4267	-0.8	14	2	-25	2	-4
O=C(Nc1ccc2c(c1)C(=O)NC2=O)c1ccc2ncsc2c1	2171	x	x	x	-30	x	-2
C=CCNC(=O)/C(=C\C=C\c1ccccc1)NC(=O)c1ccc(OCCCC)cc1	2082	4.5	x	x	-5	-15	-6
CC(C)C(NC(=O)OCc1ccccc1)C(=O)NC(Cc1ccc(O)cc1)C(=O)O (stereo not drawn)	4095	3.2	9	0	-27	0	2
Clc1ccc(CSc2nnc(-c3ccccn3)n2Cc2ccco2)c(Cl)c1	6180	0.2	8	7	-14	-4	1
Cc1ccc(S(=O)(=O)N(C)c2ccccc2)cc1	3796	4.1	x	x	-20	1	-6
CC(C)CNC(=O)CC(c1ccccc1)c1c(O)ccc2ccccc12 (stereo not drawn)	4306	3.4	11	5	-7	-11	5
The list goes on.
SMILES	Autofluor counter	Sa RN4220 lethal	Mtb hypoxia inh	Mtb hypoxia inh growth	PrP UTR inh	ugtP null kill	BJeLR viability
Cc1cccc(C(=O)N2CCN(c3ccc([N+](=O)[O-])c(N4CCOCC4)c3)CC2)c1	3506	1.6	x	x	1	-6	-6
COc1ccc(NC(=O)Nc2cc(C)ccc2OC)cc1	3316	-6.9	2	10	9	6	-15
CCN(CCn1cccn1)C(=O)CC1C(=O)NCCN1Cc1ccc(F)c(F)c1 (stereo not drawn)	4572	2.7	-1	-4	-10	1	-4
CCNc1cc(N2CCN(S(=O)(=O)c3ccc4c(c3)CCCC4)CC2)ccc1[N+](=O)[O-]	9823	1.9	10	11	-13	-1	-10
CCCn1c(=O)c2ccccc2n2c(SCC(=O)c3ccc(CC)cc3)nnc12	x	10	3	2	-26	-21	-4
CCC(C)(C)NC(=O)Cn1c(=O)oc2cc(S(=O)(=O)N3CC(C)CC(C)C3)ccc21 (stereo not drawn)	4973	4.8	7	2	-10	1	-3

Source: PubChem (several laboratories)
